MLL AF4-AF9 inh: inhibitors of AF4 peptide binding to AF9, primary screen, biochemical, AlphaScreen, biotin-AF4 peptide, FLAG-AF9, single point; Protein AF-9 (Homo sapiens), P42568; inhibition, % at 10 µM; actives 0.47% (n = 350,000); AID 651704, 2012;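 active = every replicate reaching a set inhibition limit, whatever the replicate mean, cut at about 25% in these data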;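 also: 0% = plate neutral control median and 100% = total signal loss; the record names both 10 and 1 µM as test concentration; the first replicate is given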
Target sequence (P42568 whole entry, looked up): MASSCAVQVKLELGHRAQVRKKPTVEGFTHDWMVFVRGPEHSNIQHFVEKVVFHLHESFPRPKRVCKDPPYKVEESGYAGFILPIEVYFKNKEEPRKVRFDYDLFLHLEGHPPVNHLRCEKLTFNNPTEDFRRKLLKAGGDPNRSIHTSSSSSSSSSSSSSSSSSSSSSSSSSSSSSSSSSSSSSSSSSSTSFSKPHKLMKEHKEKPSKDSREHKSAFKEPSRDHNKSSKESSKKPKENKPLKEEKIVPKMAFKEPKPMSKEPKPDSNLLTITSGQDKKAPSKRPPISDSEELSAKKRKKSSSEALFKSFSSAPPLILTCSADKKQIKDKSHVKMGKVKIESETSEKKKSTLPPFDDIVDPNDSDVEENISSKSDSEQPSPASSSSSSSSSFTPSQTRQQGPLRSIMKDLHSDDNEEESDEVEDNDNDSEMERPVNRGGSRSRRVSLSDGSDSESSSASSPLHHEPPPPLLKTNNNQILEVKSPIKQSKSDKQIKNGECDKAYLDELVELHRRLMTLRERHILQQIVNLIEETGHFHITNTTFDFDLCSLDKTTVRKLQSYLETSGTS
UCH37 DUB inh: inhibitors of human UCH37 deubiquitinase, primary screen, biochemical, Ub-AMC cleavage, fluorescence | Ubiquitin carboxyl-terminal hydrolase isozyme L5 (Homo sapiens), Q9Y5K5 | purified proteasome/UCH37 | inhibition, % (test concentration not listed) | actives 0.33% (n = 330,000) | AID 588478, 2011;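 active = mean of two replicates above 20%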;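 also: 0% = compound-free wells with enzyme and 100% = wells lacking proteasome; stock transfer was 100 nL into about 20 µL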
Target sequence (Q9Y5K5 whole entry, looked up): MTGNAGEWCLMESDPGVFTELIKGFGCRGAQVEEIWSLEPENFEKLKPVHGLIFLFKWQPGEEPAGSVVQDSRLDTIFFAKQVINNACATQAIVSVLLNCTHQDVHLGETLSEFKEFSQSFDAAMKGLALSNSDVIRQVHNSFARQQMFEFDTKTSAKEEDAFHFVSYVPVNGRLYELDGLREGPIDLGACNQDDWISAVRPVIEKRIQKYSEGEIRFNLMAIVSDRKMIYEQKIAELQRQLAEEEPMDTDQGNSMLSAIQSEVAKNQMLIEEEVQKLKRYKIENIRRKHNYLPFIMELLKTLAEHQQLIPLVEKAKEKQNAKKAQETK
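Test system – human UCH37 enzyme supplied as purified proteasome complex · Incubation – 30 min preincubation with enzyme, 25 min cleavage at room temperature · Detection – AMC fluorescence from Ub-AMC cleavage, excitation 355 nm, emission 460 nm · Benchmarks – no-proteasome wells (full inhibition) and compound-free wells (no inhibition)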
Ecoli growth: E. coli growth inhibition, primary screen, OD600 | Escherichia coli growth, 23 h; stronger effect = lower value | actives 0.21% (n = 330,000) | OD600 absorbance (test concentration not listed);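 active = OD600 absorbance below the run mean of sample wells minus 3.6 SD, in any replicate, cut at about 0.56 in these data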;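 also: stock transfer was 300 nL into about 60 µL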
rRNA inh HTS: reduced GFP signal of wild-type E. coli, primary screen, bacterial rRNA inhibitor project, GFP/RFP fluorescence, OD600, single point; actives 1.6% (n = 350,000); AID 720706, 2013; E. coli WT GFP vs humanized-ribosome RFP mutants, 24 h; stronger effect = lower value; DMSO median 0, no signal -100; GFP signal change (wild-type ribosome), % (test concentration not listed);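 active = significant combined selectivity score with lowered wild-type GFP, culture density cut under 30%, mutant RFP and density less affected; inactive = any of these conditions unmet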; also: one replicate is shown; some compounds called inactive have numbers as strong as hits
FGF22 binding: binders of human FGF22 protein, primary screen, FGF22 synaptogenesis inhibitor project, biophysical, thermal shift, single point; calls only at 9.99 µM; Fibroblast growth factor 22 (Homo sapiens), Q9HCT0; recombinant FGF22 thermal shift, SYPRO orange fluorescence; percent of sucrose octasulfate shift, DMSO zero; AID 651658, 2012; actives 1.5% (n = 340,000);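 active = melting point raised past a set limit in the mean and every replicate; three in four hits are not shown here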
Target sequence (Q9HCT0 whole entry, looked up): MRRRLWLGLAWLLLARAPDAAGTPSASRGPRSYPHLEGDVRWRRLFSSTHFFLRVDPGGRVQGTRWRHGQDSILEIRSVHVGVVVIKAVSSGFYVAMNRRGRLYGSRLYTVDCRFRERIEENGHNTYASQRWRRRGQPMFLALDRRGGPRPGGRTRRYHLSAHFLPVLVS
A1 inh: caspase 3/7 activation in MEF A1-2A-BIM cells, primary screen, A1 inhibitor project, cell-based, luminescence, HTS | Caspase-Glo 3/7 luminescence, 3 h; percent of clofoctol response, vehicle zero | AID 2462, 2010 | actives 0.066% (n = 330,000) | caspase activation, % (no concentration beside the values);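 active = over half of replicate activation scores above 10%, or exactly half above 10 with the replicate mean above 10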;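 also: wells of about 30 µL received 50 nL stock; many hits fall short of the cut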
T cruzi inh: inhibitors of intracellular T. cruzi growth, primary screen, luminescence, NIH3T3 host cells | T. cruzi beta-gal in NIH3T3, 90 h | inhibition, % (concentration not given with the values) | actives 1.4% (n = 300,000) | AID 1885, 2009;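 active = mean inhibition across valid replicates above about 55%, limit read from the data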;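 also: signal also drops with host cell toxicity which is not excluded here; 0% = plate median of DMSO wells and 100% = zero luminescence signal; higher percent means less beta-gal luminescence so fewer parasites; stock transfer was 50 nL into about 50 µL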
Beta apoptosis: inhibitors of cytokine-induced beta cell apoptosis, primary screen, luminescence | INS-1E cytokine-induced death, ATP luminescence, 48 h; percent of positive-control rescue, neutral wells zero | protection from apoptosis, % (concentration not given with the values) | actives 0.8% (n = 300,000) | AID 435005, 2010;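 active = all replicates at 75% or more, or half of them and the mean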;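 also: 0% = cytokine-treated negative control wells and 100% = positive control rescue; higher means more ATP so stronger rescue from cytokine killing; wells of about 40 µL received 100 nL stock; the first replicate is given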
rRNA inh HTS OD600: recorded beside rRNA inh HTS, whose call it bears; OD600 change, %; measured here: OD600 growth;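 optical density of the mix in the first replicate; 0 = DMSO median and -100 = no signal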
rRNA inh HTS RFP: recorded beside rRNA inh HTS, whose call it bears; RFP signal change, %; measured here: RFP humanized mutant strains;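 first replicate; 0 = DMSO median and -100 = no signal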
* hit, by the source's call; i = inactive; . = not tested or not shown; & = joins results of further samples. This is a subset; rates above refer to the full screens.

item	SMILES	MLL AF4-AF9 inh	UCH37 DUB inh	Ecoli growth	rRNA inh HTS	rRNA inh HTS OD600	rRNA inh HTS RFP	FGF22 binding	A1 inh	T cruzi inh	Beta apoptosis
1	O=C(N/N=C/c1c(O)n(Cc2ccco2)c(=O)[nH]c1=O)c1ccccc1O	6.7	4.7	0.7	2	-2	1.6	i	-1.4	1	-3
2	N=C1c2ccccc2CN1NC(=O)c1ccccc1	-0.8	2.1	0.7	0	7	-5.5	i	0.1	-10	18
3	CC(C)(C)CNC(=O)[C@]1(C)CCC[C@@]2(C)C3CC[C@@]4(C)C[C@]3(CCC21)CC4=O (stereo partly specified)	0.0	3.5	0.68	-8	-13	-6.0	i	1.4	.	-5
4	Cc1ccc(-c2nc3ccccc3c(=O)n2-c2ccc(Br)cn2)cc1	3.7	1.6	0.71	-2	-10	-2.3	i	0.9	-15	4
5	O=c1[nH]c(=O)n(Cc2ccco2)c(O)c1C=NCc1ccco1	.	2.1	0.72	.	.	.	.	-0.2	0	.
6	NNP(=O)(CC(=O)c1ccccc1)c1ccccc1 (stereo unspecified)	-0.6	4.2	0.67	12	15	-1.2	i	0.1	-8	2
7	O=c1c2ccccc2nc(-c2ccc(Cl)cc2Cl)n1-c1ccncc1	.	3.2	0.73	.	.	.	.	1.3	25	2
8	CC1CCN(CC(=O)c2ccccc2Cl)CC1	.	5.2	0.66	.	.	.	.	-0.8	-24	3
9	O=C(OCC(=O)c1ccc([N+](=O)[O-])cc1)/C(=C/c1ccc(Cl)cc1)NC(=O)c1ccccc1	0.8	4.6	0.7	-1	2	-2.1	i	0.2	-7	-7
10	Cc1cc(/C=C2\C(=O)NC(=O)N(c3ccc(Cl)cc3)C2=O)c(C)n1-c1cccc(C(=O)O)c1	2.7	4.4	0.62	14	9	6.4	i	0.3	-14	-5
11	COc1ccccc1CN1CCN(C(=O)COc2ccccc2)CC1	.	5.4	0.73	.	.	.	.	-0.3	4	4
12	C[C@@H]1O[C@@H](O[C@@H]2C=C3CC[C@@H]4C(CC[C@]5(C)[C@@H](c6ccc(=O)oc6)CC[C@]45O)[C@@]3(C)CC2)[C@H](O)[C@H](O)[C@H]1O (stereo partly specified)	0.2	-1.7	.	2	-11	-6.5	i	0.0	.	-3
13	COc1ccc(-c2cc(=O)c3c(OC)c(OC)c(OC)cc3o2)cc1	0.2	4.8	0.69	-30*	-7.5*	-3.0*	i	0.5	12	-1
14	COc1cccc(N2C(=O)NC(=O)C3(Cc4cc(C)ccc4N(C)C3)C2=O)c1 (stereo unspecified)	.	0.7	0.72	.	.	.	.	-0.3	-1	-13
15	NCCc1c[nH]c2ccc(OCc3ccccc3)cc12	6.7	-0.5	0.65	5	7	5.1	i	0.3	17	.
16	CCOC(=O)C1=C(N)OC2=C(C(=O)CCC2)C12C(=O)N(CC(N)=O)c1ccccc12 (stereo unspecified)	.	0.3	0.69	.	.	.	.	-0.5	-13	-2
17	COc1ccccc1N1CCNCC1	-0.7	1.3	0.64	.	.	.	i	-0.3	3	-3
18	c1ccc(C(OCCN2CCN(c3ncccn3)CC2)c2ccccc2)cc1	3.9	2.2	0.6	-32	-32	-3.0	i	-0.2	-6	.
19	COc1ccc(Cc2nccc3cc(OC)c(OC)cc23)cc1OC	-5.7&2.5	0.6	0.7	0	-1	2.8	i	0.0	6	25
20	COc1ccc(OC)c(-n2c(O)c(/C=C3\C(C)=Nc4ccccc43)c(=O)[nH]c2=O)c1	7.3	2.9	0.68	3	2	18	i	1.1	-3	6
21	N#CCCn1cc(C(=O)Nc2ccccc2Cl)c(-c2ccc([N+](=O)[O-])cc2)n1	-1.2	2.9	0.6	6	10	0.2	i	0.6	5	-4
22	CN1C[C@H](CNC(=O)OCc2ccccc2)C[C@@H]2c3cccc4c3c(cn4C)C[C@H]21	0.7	4.2	.	4	-16	7.1	i	-0.2	5	1
23	CCOP(=O)(Cc1cc(C(=O)CC)c(C)o1)OCC	-3.0	1.1	0.66	17	10	14	i	-0.9	-2	-11
24	CCOCC1(CCc2ccccc2)C(=O)NC(=S)NC1=O	0.6	4.2	0.68	.	.	.	i	.	.	.
25	Cc1nc2ncnn2c(C)c1CCC(=O)N1CCC2(CC1)OCCO2	.	1.9	0.68	.	.	.	.	0.8	-18	-4
26	CCOc1cc2c(cc1OCC)-n1cccc1C(c1cc(C)c(OC)cc1C)NC2 (stereo unspecified)	4.7	1.4	0.59	-32	-70	2.2	i	-1.0	43	16
27	COc1ccc(C(=O)N2CCC3(CC2)OCCO3)cc1	-1.3	1.1	0.64	19	20	3.9	i	-1.0	4	-6
28	COc1cccc(-c2nn(CCC#N)cc2C(=O)Nc2ccccc2Cl)c1	-4.3	1.0	0.66	-11	-10	0.4	i	2.0	-9	-3
29	CCOP(=O)(Cc1cc(C(C)=O)c(C)o1)OCC	-8.5	2.0	0.63	.	.	.	i	0.7	-28	-1
30	Cn1nc(-c2ccc(OCC(=O)N3CCN(Cc4ccccc4)CC3)cc2)c2ccccc2c1=O	.	1.4&5.9	0.67&0.76	.	.	.	.	-0.6&-0.3	3&12	35&45
31	O=C(c1n[nH]c(=O)c2ccccc12)N1CCC2(CC1)OCCO2	1.0	3.2	0.64	18	21	5.8	i	0.8	-1	-4
32	COc1ccc2[nH]c(C)c(CCN3CCC(=O)C(C)C3C)c2c1 (stereo unspecified)	13	3.2	0.71	16	8	3.1	i	-0.5	18	-5
33	CCN1CCN(c2ccc([N+](=O)[O-])cc2C=C2C(=O)NC(=O)NC2=O)CC1	-16	.	.	7	0	-4.3	i	-0.1	24	-7
34	Cc1ccc2c(c1)C1CN(C)CCC1N2C(=O)Cn1nnc(-c2ccccc2F)n1 (stereo unspecified)	8.8	1.1	0.73	1	-5	0.3	i	.	18	-5
35	O=C1N(CN2CCOCC2)c2ccccc2C1(O)c1c[nH]c2ccccc12 (stereo unspecified)	.	0.3	0.66	.	.	.	.	.	-7	-15
36	COC(=O)c1ccccc1N=Cc1c(O)[nH]c(=O)[nH]c1=O	2.3	-0.3	0.67	13	17	-1.0	i	-0.9	-10	-15
37	CCC(C)C(=O)N[C@@H](c1ccccc1)[C@@H](O)C(=O)O[C@H]1C[C@@]2(O)[C@@H](OC(=O)c3ccccc3)C3[C@](C)(C(=O)[C@H](OC(C)=O)C(=C1C)C2(C)C)[C@@H](O)C[C@H]1OC[C@@]31OC(C)=O (stereo partly specified)	2.5	-0.9	0.72	1	-6	-2.2	i	-0.1	57*	15
38	COc1cccc(CNCCc2c[nH]c3ccccc23)c1OC	0.4	0.8	0.69	4	4	0.3	.	-0.4	-4	7
39	CCC(C(=O)N1CCC2(CC1)OCCO2)c1ccccc1 (stereo unspecified)	-3.7	7.8	0.67	2	0	-8.5	i	-0.2	-2	2
40	COC(=O)OCC12CCC(O1)C1(C)C(=O)OCC21 (stereo unspecified)	.	-1.6	0.72	.	.	.	.	0.8	-6	-1

Of the compounds above, these have a nitro group on carbon:
item	SMILES	MLL AF4-AF9 inh	UCH37 DUB inh	Ecoli growth	rRNA inh HTS	rRNA inh HTS OD600	rRNA inh HTS RFP	FGF22 binding	A1 inh	T cruzi inh	Beta apoptosis
9	O=C(OCC(=O)c1ccc([N+](=O)[O-])cc1)/C(=C/c1ccc(Cl)cc1)NC(=O)c1ccccc1	0.8	4.6	0.7	-1	2	-2.1	i	0.2	-7	-7
21	N#CCCn1cc(C(=O)Nc2ccccc2Cl)c(-c2ccc([N+](=O)[O-])cc2)n1	-1.2	2.9	0.6	6	10	0.2	i	0.6	5	-4
33	CCN1CCN(c2ccc([N+](=O)[O-])cc2C=C2C(=O)NC(=O)NC2=O)CC1	-16	.	.	7	0	-4.3	i	-0.1	24	-7

Carrying on:
item	SMILES	MLL AF4-AF9 inh	UCH37 DUB inh	Ecoli growth	rRNA inh HTS	rRNA inh HTS OD600	rRNA inh HTS RFP	FGF22 binding	A1 inh	T cruzi inh	Beta apoptosis
41	CCC(=O)N1N=C2C3CCN(CC3)C2C1c1ccc(C)cc1 (stereo unspecified)	4.2	5.5	0.77	7	7	-4.0	i	0.9	-8	-8
42	CC(C(=O)c1c[nH]c2ccccc12)N1CCSCC1 (stereo unspecified)	.	2.6	0.66	.	.	.	.	0.7	-1	-2
43	COc1cccc(N2C(=O)NC(=O)/C(=C\c3cn(C)c4ccccc34)C2=O)c1	-0.8	6.5	0.65	9	5	1.3	i	2.5	-20	-8
44	O=C(CSC1c2ccccc2-c2ccccc21)N/N=C/c1ccccc1	-40	.	.	-19	-28	0.9	i	-0.3	-12	-2
45	C=CCn1c(C)c(C=C2C(=O)NC(=O)NC2=O)c2ccccc21	1.9	6.2	0.69	3	-2	5.6	i	-0.8	-14	.
46	CC[C@H]1CC2CN3CCc4c([nH]c5cc(OC)ccc45)[C@](C(=O)OC)(C2)[C@H]13	.	2.3	0.77	.	.	.	.	0.1	29	1
47	[N-]=[N+]=CC(=O)OC[C@H](N)C(=O)O	9.6	0.6	.	7	18	-0.9	i	-1.0	7	4
48	CC(=O)C1=C(C)OC(N)=C(C(=O)OC(C)C)C12C(=O)Nc1ccccc12 (stereo unspecified)	-5.7	0.7	0.7	10	5	0.1	.	.	0	.
49	CCOC(=O)[C@]12Cc3cc(C)ccc3[C@H]1N(Cc1ccccc1)C(=O)c1ccccc12	2.2	2.3	.	-4	-4	-1.4	i	.	.	.
50	CCCN(CC#CCO)CCC	.	2.0	0.7	.	.	.	.	-1.0	-16	.
51	CCOc1ccc(N=Cc2c(O)n(C(C)(C)C)c(=O)[nH]c2=O)cc1	.	-394	0.71	.	.	.	.	0.1	-1	-3
52	NCCc1nc2ccccc2s1	0.0	1.1	0.69	9	9	-8.1	i	0.3	-14	-5
53	C[N+]12CCC(CC1)C(C(O)(c1cccc(Cl)c1)c1cccc(Cl)c1)C2 (stereo unspecified)	1.4	6.8	0.69	-46	-61	-8.2	i	0.3	2	-2
54	Nc1ccccc1C(=O)OC1CSC1	.	-59	0.67	.	.	.	.	0.7	-15	-9
55	Cc1sc2c(c1C)C(c1ccc(C(C)(C)C)cc1)=NCC(=O)N2CC(=O)Nc1nccs1	.	6.6	0.68	.	.	.	.	-0.1	37	4
56	CNC(=S)N(C)CCc1cc2c(c(OC)c1C=C1C(=O)NC(=O)NC1=O)OCO2	65*	.	.	20	-6	1.6	i	1.8	-5	.
57	CN1CCN(C(=O)COc2ccc(C(C)(C)C)cc2Br)CC1	.	2.7	0.71	.	.	.	.	0.6	4	5
58	O=C(C1CCC(=O)N1Cc1ccccc1Cl)N1CCC2(CC1)OCCO2 (stereo unspecified)	.	3.3	0.67	.	.	.	.	-0.4	-7	3
59	O=[N+]([O-])CCO	.	0.6	0.67	8	10	3.5	i	-0.3	.	1
